# Screens (PubChem BioAssay)
# KCNQ2 enhance = potentiators of rat KCNQ2 potassium channel; O88943; CHO-K1 KCNQ2, FluxOR thallium flux fluorescence; stronger effect = higher value; B-score at 10 µM; actives 0.54% (n = 310,000);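 active = fluorescence ratio B-score at least 3 SD of library B-scores, with initial fluorescence B-score within 3 SD, cut at about 5.3 in these data; same plate scores as AID 2156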;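 also: B-score of peak minus minimum over baseline fluorescence ratio after K+ and Tl+ stimulus; positive B-score means potentiation of KCNQ2 with more thallium influx and brighter signal; only the inactives scoring about 0 or higher are listed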
# Target sequence (O88943 whole entry, looked up): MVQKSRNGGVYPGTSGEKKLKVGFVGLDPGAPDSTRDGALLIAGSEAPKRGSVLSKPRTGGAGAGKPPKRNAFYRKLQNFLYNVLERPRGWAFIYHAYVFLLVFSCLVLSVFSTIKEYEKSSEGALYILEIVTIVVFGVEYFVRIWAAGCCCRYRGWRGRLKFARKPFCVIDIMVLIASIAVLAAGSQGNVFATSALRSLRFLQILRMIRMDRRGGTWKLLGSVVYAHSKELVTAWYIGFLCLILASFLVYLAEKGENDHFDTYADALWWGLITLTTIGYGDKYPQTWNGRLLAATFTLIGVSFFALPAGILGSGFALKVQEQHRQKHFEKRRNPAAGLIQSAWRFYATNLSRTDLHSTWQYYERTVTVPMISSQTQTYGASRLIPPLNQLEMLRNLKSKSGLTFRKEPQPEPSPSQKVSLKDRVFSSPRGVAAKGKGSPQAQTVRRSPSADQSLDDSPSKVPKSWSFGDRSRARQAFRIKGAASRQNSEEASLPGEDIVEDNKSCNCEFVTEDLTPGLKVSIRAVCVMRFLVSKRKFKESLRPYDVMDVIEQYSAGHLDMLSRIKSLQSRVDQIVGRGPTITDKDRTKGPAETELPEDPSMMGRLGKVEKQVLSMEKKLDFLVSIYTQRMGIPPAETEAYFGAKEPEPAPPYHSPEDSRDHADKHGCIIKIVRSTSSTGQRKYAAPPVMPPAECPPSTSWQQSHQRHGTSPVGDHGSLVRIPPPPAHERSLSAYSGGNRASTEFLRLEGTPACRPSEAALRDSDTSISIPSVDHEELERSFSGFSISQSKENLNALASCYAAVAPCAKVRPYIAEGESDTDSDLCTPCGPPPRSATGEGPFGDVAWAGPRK
# KCNQ2 enhance baseline = recorded beside KCNQ2 enhance, whose call it bears; B-score; compound at 10 µM; measured here: initial fluorescence intensity artifact check;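 brightness before thallium and not channel activity; 0 = typical well and far values either way flag optical interference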
# Numbers without * were called inactive. The list is partial, so the mix of outcomes need not match the whole.
Compound,KCNQ2 enhance baseline,KCNQ2 enhance
CCOC(=O)CC(NC(C)=O)c1ccc([N+](=O)[O-])cc1 (stereo not given),0.02,0.07
CCN(CC)C(=O)C(Sc1ccccc1)c1ccccc1 (stereo not given),0.9,0.75
O=C(CCSCCC(=O)NCc1cccs1)NCc1cccs1,1.11,0.86
CN(C)C(=O)c1ccc(NC(=O)c2sccc2-c2ccccc2)cc1,-1.59,0.67
CCn1c(=O)c([N+](=O)[O-])c(NCCc2ccccc2)c2ccccc21,0.05,0.02
N#Cc1ccc(OCC(O)CS(=O)(=O)c2ccccc2)cc1 (stereo not given),-0.21,0.96
Cc1cccc(N2CCN(C(=O)C3CCN(S(=O)(=O)c4cnc[nH]4)CC3)CC2)c1C,-0.46,0.02
Cc1onc(-c2ccccc2)c1C(=O)N=C(N)c1ccc(C(F)(F)F)cc1,-1.31,0.46
Cc1cc2cc(C)c(NCCNC(=O)c3ccccc3Cl)nc2cc1C,0.4,0.48
CCS(=O)(=O)N1CCN(Cc2ccccc2OC)CC1,-0.13,1.25

# (cont.)
Compound,KCNQ2 enhance baseline,KCNQ2 enhance
COc1ccc(C(=O)COC(=O)COc2ccc(C)c(C)c2)cc1,-0.01,0.59
CC(=O)Nc1ncc(Cc2ccc(Cl)cc2Cl)s1,0.02,0.43
Nn1c(COc2ccccc2F)nnc1SCC(=O)NC1CC1,-1.11,0.82
CCOC(=O)c1c(C)[nH]c(C=Nc2ccccc2)c1O,0.83,0.48
COc1ccc(Cc2nnc(SCC(=O)c3ccc(OC)cc3)o2)cc1,-2.11,0.2
CCC(=O)Nc1ccc(SC#N)cc1C,0.07,0.11
Cc1nnc(SC(C)C(=O)Nc2ccc(S(=O)(=O)N3CCCCCC3)cc2)s1 (stereo not given),-0.42,0.16
Cc1cccc(NC(=O)C(=O)NCCc2c[nH]c3ccccc23)c1C,-2.91,2.63
C/C(Cn1cnc([N+](=O)[O-])n1)=N\NC(=O)c1ccc(O)cc1O,-0.04,0.11
Cc1cc(=O)[nH]c(SCC(=O)N2CCC(Cc3ccccc3)CC2)n1,-2.39,0.66

# Additional results.
Compound,KCNQ2 enhance baseline,KCNQ2 enhance
CCOC(=O)N1CCN(Cc2nc(-c3cccc(Cl)c3)no2)CC1,0.21,0.23
O=C(CSCc1ccc([N+](=O)[O-])cc1)Nc1ccc(S(=O)(=O)N2CCCCCC2)cc1,0.78,0.08
COc1ccc(N2CCC(CNS(=O)(=O)c3cccc(C(F)(F)F)c3)C2)cc1 (stereo not given),-0.37,0.77
CCN(Cc1ccncc1)C(=O)c1cccc(S(=O)(=O)N2CCOCC2)c1,-0.05,0.53
C=CCN1C(=O)CN=C1Nc1cccc(C)c1,0.01,1.67
CC1=C2C(CCS2(=O)=O)CC2(C1)C(=O)OC(C)(C)OC2=O (stereo not given),-1.12,0.41
O=C(COC(=O)c1ccncc1)c1ccc(Cl)c(Cl)c1,-2,0.23
COc1ccccc1-c1cc(C(=O)N2CCN(S(=O)(=O)c3ccc(C)cc3)CC2)[nH]n1,-0.04,0.88
Cc1cc(Nc2ccc(Cl)cc2)n2nnnc2n1,0.58,1.1
CN(C)c1ccc(/C=N/NC(=O)c2ccc(NC(=O)c3ccccc3)cc2)cc1,-1.55,0.85

# Molecules shown so far that have an aryl thioether with sulfur outside any ring, in the order listed:
Compound,KCNQ2 enhance baseline,KCNQ2 enhance
CCN(CC)C(=O)C(Sc1ccccc1)c1ccccc1 (stereo not given),0.9,0.75
Nn1c(COc2ccccc2F)nnc1SCC(=O)NC1CC1,-1.11,0.82
COc1ccc(Cc2nnc(SCC(=O)c3ccc(OC)cc3)o2)cc1,-2.11,0.2
Cc1nnc(SC(C)C(=O)Nc2ccc(S(=O)(=O)N3CCCCCC3)cc2)s1 (stereo not given),-0.42,0.16
Cc1cc(=O)[nH]c(SCC(=O)N2CCC(Cc3ccccc3)CC2)n1,-2.39,0.66

# (further entries)
Compound,KCNQ2 enhance baseline,KCNQ2 enhance
O=C(CSc1nc(-c2ccccc2)cs1)Nc1nccs1,0.81,1
COc1ccccc1N1CCN(C(=O)c2cc3c(-c4ccc(Cl)cc4)nn(C)c3s2)CC1,1.28,0.75
COc1cccc(NC(=O)C2CCN(S(=O)(=O)c3ccc4c(c3)C(C)(C)C(=O)N4C)CC2)c1,0.59,0.24
CC(C)CNC(=O)c1cccc(NC(=O)c2ccccc2-c2ccccc2C(=O)O)c1,-0.13,0.77
CC1CCN(c2ccccc2NC(=S)NC(=O)c2ccco2)CC1,-0.05*,5.86*
Cc1ccc(/C=N/NC(=O)CC(=O)NCc2cccnc2)cc1,-1.15,3.2
CCC(=O)Nc1ccnc(-c2cccnc2)n1,-1.07,2.91
CCN(CC(=O)NCc1cccs1)C(=O)c1cccc(S(=O)(=O)N2CCc3ccccc32)c1,-0.04,0.01
Cc1cc(-c2onc(C)c2C(=O)O)no1,0.46,0.63
Cn1nc(-c2ccc(S(N)(=O)=O)s2)cc1C(F)(F)F,0.18,0.31

# The list continues.
Compound,KCNQ2 enhance baseline,KCNQ2 enhance
O=C(c1cc2cc(F)ccc2[nH]1)N1CCc2ccccc2C1,0.69,0.52
CCc1ccc2cccc3c2c1N=CN3C,-0.36,0.7
Nc1nc(C(=O)N2CCOCC2)nn1S(=O)(=O)c1ccccc1,0.23,0.01
CC(NCc1ccc2c(c1)OCO2)C(=O)NC1CCCc2ccccc21 (stereo not given),0.08,0.06
O=C(c1ccc(Cl)cc1Cl)N1CCN(c2ccccn2)CC1,-0.04,0.37
Cc1sc2ncnc(N3CCC(C(=O)NNC(=O)COc4ccccc4F)CC3)c2c1C,-1.64,1.53
C/C(=C\c1ccc(N)cc1)c1nc2ccccc2[nH]1,0.94,0.97
COc1cc(/C=C/C(=O)OCc2c(C)noc2C)ccc1OC(F)F,-0.49,4.16
COc1ccc(NC(=O)N2CCCCC2)cc1,-0.15,0.17
Cc1ccc(S(=O)(=O)Nc2ccc(N3CCOCC3)cc2)cc1[N+](=O)[O-],-1.62,0.01

# Additional structures:
Compound,KCNQ2 enhance baseline,KCNQ2 enhance
Cc1cc(C)nc(SCC(=O)Nc2sc3c(c2C#N)CCC(C)C3)n1 (stereo not given),1.38,0.23
Cc1cc(-c2ccccc2)n2nc(C)c(C#N)c2n1,-1.08,2.04
Cc1ccc(NC(=O)Nc2ccc3c(c2)OCO3)cc1F,-1.6,0.27
CC(C)OC(=O)c1ccc(OC(=O)c2cccnc2)cc1,0.47,0.83
N#CC1=C(N)C(C#N)(C#N)[C@H](c2ccncc2)[C@H]2CN(C(=O)OCc3ccccc3)CC=C12,-0.36,0.8
COc1ccccc1N1CCN(C(=O)CCc2ccc(S(=O)(=O)NC(C)C)cc2)CC1,-0.73,0.09
O=C(Cc1c(F)cccc1Cl)Nc1ccccn1,0.01,0.74
CC(=O)Nc1ccc(NS(=O)(=O)c2ccc3c(c2)NC(=O)CC(=O)N3)cc1,-0.92,0.57
CCCOC(=O)c1cc(-c2ccc(C=O)o2)ccc1Cl,-1.51,1.44
COC1(NC(=O)c2ccccc2)C(C)=CC(=O)C=C1C,1.26,0.37

# Next compounds follow.
Compound,KCNQ2 enhance baseline,KCNQ2 enhance
O=C1NN(c2ccc(F)c(Cl)c2)C(=O)/C1=C\c1cccc(OC(=O)c2cccs2)c1,0.01,0.84
O=c1cc(-c2ccccc2)nc(SCc2ccccc2F)[nH]1,0.77,0.12
CCc1c(C)nc2cc(-c3cc(OC)cc(OC)c3)nn2c1N1CCCC1,0,0.09
COc1cc(C(C)=O)ccc1COc1ccc(C(=O)OCC(N)=O)cc1OC,-0.03,1.28
O=c1[nH]cnc2onc(-c3ccc(F)cc3)c12,1.09,0.73
O=C(NC(NC(=S)Nc1c(Cl)cc(Cl)cc1Cl)C(Cl)(Cl)Cl)OCc1ccccc1 (stereo not given),-0.45,0.77
CCN(CC)N=Nc1cccc(NC(C)=O)c1,-2.51,0.81
CN1C[C@@H]2C(c3ccccc3)C3(c4ccc(C#N)cc4)CC2(C3)[C@H]1c1ccccc1 (stereo not given in full),0.41,1.63
Cn1c(/C=N/NC(=O)c2ccccc2)nc2ccccc21,0.95,1.7
Cc1ccccc1-n1c(SCC(=O)N(C)C2CCS(=O)(=O)C2)nc2ccccc2c1=O (stereo not given),1.16,0.58

# (more compounds)
Compound,KCNQ2 enhance baseline,KCNQ2 enhance
Oc1ccc(-c2nccc(-c3ccccn3)n2)cc1,0.62,1.21
COc1ccccc1-n1c(-c2cc(-c3ccc(F)cc3)n[nH]2)n[nH]c1=S,0.2,0.07
CC(C)(C)NC(=O)COc1ccc(CNc2ncn[nH]2)cc1,0.57,0.22
Nc1ccc(-c2nc3c(ccc4ccccc43)[nH]2)cc1,-0.29,3.88
Cc1cc(C)n2nc(C(=O)N(C)C(c3ccccc3)c3ccccc3)nc2n1,-0.38,3.4
COC(=O)/C(=C/c1ccc(F)cc1)NC(C)=O,0.14,0.43
CN(C)CCN(C(=O)c1ccc2c(c1)OCCO2)c1nc2ccc(Cl)cc2s1,0.62,0.29
COc1cc(Nc2cc(C)nc3ncnn23)cc(OC)c1OC,-0.4,0.34
N#Cc1c(NC(=O)c2ccc(Cn3cc(Br)cn3)o2)sc2c1CCCCC2,-0.43,2.28
[O-]/[N+](=C\c1ccncc1)c1ccc(Br)cc1,0.46,0.08

# Additional structures follow:
Compound,KCNQ2 enhance baseline,KCNQ2 enhance
CN1CCN(S(=O)(=O)c2cccc(C(=O)Oc3cccc(C#N)c3)c2)CC1,-0.1,0.11
O=C(CN1CCCCC1)Nc1ccc(S(=O)(=O)N2CCCCCC2)cc1,1.98,0.32
Nn1c(SCC(=O)Nc2ccc3c(c2)OCCO3)nnc1C(F)(F)F,-0.36,0.49
COc1ccc(/C=C/C(=O)Nc2nc(N)n(-c3ccccc3)n2)cc1,0.99,0.25
NC(=O)c1cc(S(=O)(=O)N2CCOCC2)ccc1N1CCCC1,-1.23,0.01
O=C(CNC(=O)c1cc2c(n(-c3ccccc3)c1=O)CCCC2=O)c1ccccc1,-2.65,1.51
COc1cccc(/C=N/Nc2nc3ccccc3[nH]2)c1O,-1.54,3.78
Cc1cc(=O)n2[nH]c(=O)c(N=Nc3ccccc3)c2[nH]1,-1.19,1.29
O=C1/C(=C/c2ccccn2)SC(=S)N1N1CCOCC1,1.94,0.01
CCCNC(=O)Nc1cc(OC)c(OC)cc1Cc1nccc2cc(OC)c(OC)cc12,1.37,0.89

# Next part:
Compound,KCNQ2 enhance baseline,KCNQ2 enhance
COC(CNC(=O)C(=O)NCC1OCCN1S(=O)(=O)c1ccccc1)OC (stereo not given),1.57,0.28
COc1cc(/C=N/NC(=O)c2cc(-c3ccccc3)nc3ccccc23)cc(OC)c1O,-1.07,2.09
Cc1cc([N+](=O)[O-])ccc1NC(=O)CSc1nnc(C)n1C,0.61,1.25
CC(C)NC(=O)NC(=O)COC(=O)/C=C/c1ccc2c(c1)OCO2,0.06,0.36
c1ccc(COc2ccc(OCCN3CCCC3)cc2)cc1,-0.5,1.73
Fc1ccc(-c2csc(NC(=S)Nc3ccccc3)n2)cc1,0.11*,8.78*
CCOC(=O)Cn1c(=O)oc2cc(S(=O)(=O)N(CCN(C)C)Cc3ccccc3)ccc21,2.17,0.39
COc1ccccc1N1CCN(C(=O)c2cc(C)on2)CC1,-0.01,1.53
COc1ccc(C(=O)N(c2ccccn2)C2CCCCC2)c(OC)c1,0.19,0.21
CCCCC(=O)Nc1ccccc1C#N,0.09,0.5

# Further structures follow.
Compound,KCNQ2 enhance baseline,KCNQ2 enhance
CN(CC(=O)N1CCN(c2ccccn2)CC1)S(=O)(=O)c1cccc2nsnc12,0.9,0.24
CC(C)N(C(=O)CSc1nnc(Cn2nnc3ccccc32)n1C)C(C)C,0.51,0.51
O=C(NCc1n[nH]c(=S)n1-c1cccc(C(F)(F)F)c1)c1ccco1,-0.31,0.07
CN(c1ccccc1C(=O)N1CCN(c2ccccc2)CC1)S(C)(=O)=O,0.4,0.42
Cc1ccc(S(=O)(=O)N2CCOCC2)c(C)c1NS(C)(=O)=O,-0.31,1.54
O=c1[nH]c2cc3c(cc2cc1CN(Cc1ccco1)C(=S)NCCCN1CCOCC1)OCCO3,-2.12,0.86
NC(=O)C1CCN(C(=O)COc2ccc3c(c2)oc(=O)c2ccccc23)CC1,-0.82,1.82
Cc1cc(C)cc(OCC(=O)NNC(=O)C2CCCO2)c1 (stereo not given),0.82,0.85
CN(C)c1ccc(NC(=O)c2ccc3nc[nH]c3c2)cc1,0.16,0.14
CCCS(=O)(=O)N1CCn2c(nc3ccccc32)C1,-0.49,0.47

# New compounds follow
Compound,KCNQ2 enhance baseline,KCNQ2 enhance
CCCCOc1ccc(C(=O)Nc2ccc(N3CCN(C(C)=O)CC3)cc2)cc1,0.23,0.17
CCOc1ccc(NC(=S)N(CCOC)C(C)c2ccco2)cc1 (stereo not given),0.02,1.81
O=C(NCCN1CCCCC1)c1ccco1,-0.25,1.3
Cc1cc(C(=O)OCC(=O)Nc2cc(S(=O)(=O)N(C)C)ccc2C)c2ccccc2n1,-0.07,0.23
COc1ccc(S(=O)(=O)N(C(=O)c2ccco2)c2cc3sc(=O)oc3c3ccccc23)cc1,-0.03,1.44
COc1ccccc1-n1cnnc1SCC(=O)NCc1cccs1,-1.97,0.32
COc1ccc(OC)c(C(C(=O)NC2CCCCC2)N(C(=O)c2ccccn2)c2cccnc2)c1 (stereo not given),0.03,0.82
Cc1ccc(C(=O)Cn2c(C)cc(C)c(C#N)c2=O)cc1,0,1.55
O=C(Nc1ccc(N2CCCC2)cc1)C(Cl)c1ccccc1 (stereo not given),-1.31,0.06
Cc1c(C(=O)OC2CCCC2)[nH]c2c1C(=O)CC(c1ccco1)C2 (stereo not given),-1.05,0.02
COc1cc(CC(=O)OCC(=O)Nc2cccc([N+](=O)[O-])c2)cc(OC)c1OC,-0.24,0.17
Cc1ccc(C)n1CCN1CCN(C(=O)CC#N)CC1,-0.19,0.36
Cc1ccc(S(=O)(=O)N(C)c2ccc(C(=O)NCc3ccccc3F)cc2)cc1,-0.39,1.7
